StopGo reporter: High Throughput Screening for Foot and Mouth Disease Virus Antivirals | actives 1.2% (n = 410,000) | human cells with a luciferase reporter of 2A StopGo recoding; control for the full effect not named in the record | Potency, µM (highest dose often 57.9 µM), for inactives: at the top dose signal change, negative = less light; active = well fitted falling curve with a large enough effect; inconclusive = small, poorly fitted or top-dose-only effect; inactive = no such curve, though single readings can be large or run the other way; tested in HEK293T cells; note: % is set by controls: 0 for no effect and ±100 for the full control effect; nearly all actives have a fitted effect of over 45% in size; luciferase light after 4 h
RE007 growth inh: qHTS Assay for Inhibitors of the HIV-1 protein Vpr. S. pombe RE007 Vpr strain, BacTiter-Glo ATP luminescence, 24 h; control for the full effect not named in the record. Potency, µM (doses to about 92.2 µM), for inactives: at the highest dose activity change, negative = less growth. actives 0.21% (n = 360,000); active = well fitted falling curve with a large enough effect; inconclusive = small, poorly fitted or top-dose-only effect; inactive = no such curve, though single readings can be large or run the other way;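 note: % is set by controls: 0 for no effect and ±100 for the full control effect; nearly all actives have a fitted effect of over 50% in size; the assay follows cell death caused by Vpr and the record does not say whether a fall means rescue or toxicity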
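Fission yeast strain RE007, carrying one chromosomally integrated HIV-1 vpr copy, was seeded at OD 0.01 in PMG+AL medium with 23 nL pinned compound. After 24 h at 30 °C and 99% humidity, viability was read by BacTiter-Glo luminescence.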
SARS PLP yeast: qHTS of Yeast-based Assay for SARS-CoV PLP; Potency, µM (top dose mostly 32.9 µM), inactives show top-dose activity, positive = growth rescue; actives 0.19% (n = 330,000); S. cerevisiae expressing SARS-CoV PLpro, growth rescue; control for the full effect not named in the record; AID 485353, 2010; active means well fitted rising curve with a large enough effect; inconclusive means small, poorly fitted or top-dose-only effect; inactive means no such curve, though single readings can be large or run the other way; note: 0% is about no effect; nearly all actives have a fitted effect of over 55% in size; growth read by luminescence after 48 h
Starred values were filed as active, the others as inactive; u = inconclusive; [ ] = another dose, or the depositor's remark. Potency is the fitted concentration of half-maximal effect. Only part of the results is shown. The share of hits here may be higher or lower than overall.

SMILES | StopGo reporter | RE007 growth inh | SARS PLP yeast
CC(C)c1ccc(S(=O)(=O)N2CCCCC2)cc1 | 0% | -6% | 0%
COCCN(Cc1ccccc1)C(=O)C1CCN(S(=O)(=O)c2ccc3c(c2)OCCO3)CC1 | -18% | 2% | 1%
COC(=O)C1=C(c2cccc(C#N)c2)C[C@@H]2CC[C@H]1N2C(=O)N1CCCC1 | u | 1% | 1%
O=C(COC(=O)CCS(=O)(=O)c1ccccc1)Nc1ccccc1 | -8% | -3% | -4%
COc1ccc2sc(-c3ccccc3OC)c(C#CC(C)(C)O)c2c1 | -12% | 0% | 0%
COc1cc(-c2ccccc2)[nH]c(=S)n1 | -12% | 16% | 10%
COc1ccc(-c2c(C#Cc3ccsc3)c3cc(-c4cccc5[nH]ccc45)ccc3n2C)cc1 | -5% | 11% | -8%
CCC(C)N(C(=O)COc1ccc(NC(C)=O)cc1)C1CCS(=O)(=O)C1 (stereo not given) | 1% | 1% | 0%
O=S(=O)(c1ccccc1)N1CCC(c2ccccc2)CC1 | -17% | -23% | 0%
Cc1noc(C)c1COc1ccc(C(=O)OCC(=O)Nc2ccc(S(N)(=O)=O)cc2)cc1 | -1% | 14% | -13%
Cc1ccc(C2=NN(CC(=O)NCc3cccs3)C(=O)CC2)cc1 | -1% | 11% | 1%
COc1ccc2sc(-c3ccc(S(C)(=O)=O)cc3)c(C#CCO)c2c1 | u | -3% | 6%
CN1CCN(S(=O)(=O)c2ccccc2)C(c2ccccc2)C1 (stereo not given) | -8% | -15% | 9%
COc1cc2c(C(F)(F)F)c(-c3ccc(C#N)cc3)oc(=O)c2cc1OC | -13% | 8% | -2%
COc1ccc(CN(C)C(=O)Cn2ccc(N)nc2=O)cc1OC | -23% | -7% | -9%
Cc1ccc2c(c1)[C@@H]1[C@H](CO2)[C@H](c2ccccc2)[C@@]2(C)C(=O)N[C@H](C)C(=O)N12 | -10% | 10% | 2%
CC(=O)N1c2ccccc2C2CCCC[C@@H]21 (stereo not given in full) | 0% | 10% | 1%
COc1ccc([C@H]2CC(=O)C=C(c3ccc(O)cc3)C2)cc1OC | u | 2% | -9%
Cc1ccc(NC(=O)c2ccc(OCc3c(C)noc3C)cc2)c(C)c1 | -16% | -8% | -3%
COc1ccc(CC(=O)OCC(=O)NC2CC2)cc1 | -20% | 2% | 5%

The closing two compounds of the part above are carried over, then new ones follow:
SMILES | StopGo reporter | RE007 growth inh | SARS PLP yeast
Cc1ccc(NC(=O)c2ccc(OCc3c(C)noc3C)cc2)c(C)c1 | -16% | -8% | -3%
COc1ccc(CC(=O)OCC(=O)NC2CC2)cc1 | -20% | 2% | 5%
O=C(Cn1cnc2c(NCc3ccccc3)ncnc21)NCC1CCCO1 (stereo not given) | -5% | 7% | -3%
COc1ccc(CCN(C)C(=O)C2CC(=O)N(Cc3ccc(C)cc3)C2)cc1OC (stereo not given) | -16% | -9% | 2%
CNCC(=O)Nc1ccc(Cl)c(C(F)(F)F)c1 | 0% | 9% | 2%
COc1ccc([N+](=O)[O-])cc1NC(=O)COC(C)=O | -10% | -13% | -5%
O=C(COC(=O)c1cc(Cl)nc(Cl)c1)NCCc1ccc(F)cc1 | -1% | 14% | -2%
CN(C)c1cc[n+](CC(O)C[n+]2ccc(N(C)C)cc2)cc1 | -4% | 2% | 2%
Cc1c(C(=O)Nc2c(F)cccc2F)sc2ncnc(N3CCN(c4ccccc4)CC3)c12 | -28% | 13% | -3%
Cc1ccc(S(=O)(=O)CCC(=O)OCC(=O)NCc2ccc(Cl)cc2)cc1 | -6% | -4% | 1%
COC(=O)C1=C(c2c(C)noc2C)C[C@@H]2CC[C@H]1N2C(=O)N1CCOCC1 | -1% | -4% | -5%
CN1CCC(N(C)C(=O)c2ccc(Cl)c(S(=O)(=O)N3CCCCC3)c2)CC1 | -10% | -11% | 3%
COc1ccc(NC(=O)CC2SC(N3CCOCC3)=NC2=O)cc1OC (stereo not given) | 1% | 0% | -10%
O=C(CSc1n[nH]c(-c2ccccc2F)n1)Nc1cc(F)ccc1F | -2% | 10% | 6%
O=C(NCCCCNCCCNC(=O)c1ccccc1)c1ccccc1 | -8% | 7% | -1%
O=C(CNc1cc([N+](=O)[O-])ccc1NCCO)Nc1cccc(S(=O)(=O)N2CCCCC2)c1 | -25% | -1% | 5%
CCc1n(CC(O)COCc2ccccc2)c2ccccc2[n+]1C (stereo not given) | -17% | -6% | 2%
Nn1c(SCC(=O)Nc2ccc(N3CCOCC3)cc2)nnc1C1CC1 | 13% | 0% | -5%
COc1cc(OC)c(OC)cc1CNC(=O)c1ccc(S(=O)(=O)N2CC(C)OC(C)C2)cc1 (stereo not given) | -15% | -8% | 4%
Cc1cccc(NC(=O)c2nc[nH]c2C(=O)N(C)Cc2ccccc2)c1 | 17% | 0% | -1%
O=C(COC(=O)c1cc(F)c(F)cc1Cl)NC1CC1 | -8% | 3% | 2%
COc1ccc(S(=O)(=O)N2CCCCC2)cc1NC(=O)c1[nH]c(C)c(C(C)=O)c1C | -23% | -6% | -3%
O=S(=O)(c1ccccc1)N1CCN(Cc2c(O)ccc3ccccc23)CC1 | 25% | -15% | -2%
COc1cc(C(=O)Nc2ncccc2C)ccc1OCC(=O)N1CCOCC1 | -20% | -12% | -3%
Cc1ccc(/C=C2\Oc3c(ccc(O)c3CN3CCN(C)CC3)C2=O)cc1 | 7% | -9% | 1%
CCN(Cc1ccc2c(c1)OCO2)C(=O)CSc1ncnc2sccc12 | -6% | 11% | 2%
COC(=O)C1=C(c2ccc(F)cc2F)C[C@@H]2CC[C@H]1N2C(=O)NCc1ccc(C(F)(F)F)cc1 | -26% | 0% | -14%
NC(=O)C1CCN(CC(=O)Nc2cc(S(=O)(=O)N3CCOCC3)ccc2N2CCCC2)CC1 | -25% | 1% | -8%
CC1CCN(C(=O)C2COc3ccccc3O2)CC1 (stereo not given) | 31%[activator] | -9% | -1%
COc1ccc(-c2sc3cc(OC)c(OC)cc3c2C#CCO)cc1 | -20% | 1% | 3%
FC(F)(F)c1ccc2c3n(nc2c1)CCN=C3c1ccc(Cl)cc1 | 10% | -1% | 0%
c1cnc2cc(-c3ccsc3)ncc2c1 | 47%[activator] | 8% | 0%
CCN(C[C@H]1N[C@@](C)(C(=O)OC)[C@H]2C(=O)N(C)C(=O)[C@@H]12)C(=O)COc1ccccc1 | 0% | 26% | -1%
COc1ccc(-c2sc3ccccc3c2-c2ccc(OCCN(C)C)cc2)cc1 | u | -5% | -2%
CCOc1ccc(OCCSc2ccc(S(=O)(=O)N3CCN(C)CC3)cn2)cc1 | -21% | 0% | 10%
C#CCOCCOCCOCCNc1nc(N2CCN(C(=O)C([C@@H](C)O)n3cc([C@@H](N)CCCCN)nn3)CC2)nc(N2CCN(C(=O)[C@H](CCCN=C(N)N)n3cc(C(N)[C@@H](C)CC)nn3)CC2)n1 (stereo not given in full) | 0% | -23% | -10%
CCN1CCN(CC(=O)c2ccc(OC)cc2)CC1 | 19% | -8% | 0%
CC12CCC(C/C1=N/NC(=O)COc1ccccc1Cl)C2(C)C (stereo not given) | -9% | 3% | -4%
CC(C)(C)OC(=O)C[C@@H]1C/C=C\C[C@@H](CC(=O)N[C@H](CO)Cc2ccccc2)C(=O)N2CCC[C@H]2COC1=O | -23% | 10% | -13%
CC(=O)c1cccc(NC(=O)CC2S/C(=N/N=C/c3ccccc3)NC2=O)c1 (stereo not given) | -3% | 4% | 10%
CCN1C(=O)[C@@H]2[C@@H](c3ccc(-c4ccc(F)cc4)cc3)N3CCCC[C@@]3(C(=O)OC)[C@@H]2C1=O | -23% | 1% | 6%
COc1ccc([C@H]2CC(=O)C=C(c3ccc(Oc4ccccc4)cc3)C2)cc1OC | u | 0% | -2%

Fetched by structure from the entries so far, 7 records:
SMILES | StopGo reporter | RE007 growth inh | SARS PLP yeast
FC(F)(F)c1ccc2c3n(nc2c1)CCN=C3c1ccc(Cl)cc1 | 10% | -1% | 0%
CCN(Cc1ccc2c(c1)OCO2)C(=O)CSc1ncnc2sccc12 | -6% | 11% | 2%
c1cnc2cc(-c3ccsc3)ncc2c1 | 47%[activator] | 8% | 0%
CC(C)(C)OC(=O)C[C@@H]1C/C=C\C[C@@H](CC(=O)N[C@H](CO)Cc2ccccc2)C(=O)N2CCC[C@H]2COC1=O | -23% | 10% | -13%
CCN1CCN(CC(=O)c2ccc(OC)cc2)CC1 | 19% | -8% | 0%
CCOc1ccc(OCCSc2ccc(S(=O)(=O)N3CCN(C)CC3)cn2)cc1 | -21% | 0% | 10%
CCN1C(=O)[C@@H]2[C@@H](c3ccc(-c4ccc(F)cc4)cc3)N3CCCC[C@@]3(C(=O)OC)[C@@H]2C1=O | -23% | 1% | 6%

(listing goes on)
SMILES | StopGo reporter | RE007 growth inh | SARS PLP yeast
COC(=O)C1=C(c2ccc(C(C)=O)cc2)C[C@@H]2CC[C@H]1N2C(=O)N1CCC(O)(c2ccc(Cl)cc2)CC1 | -27% | 0% | -10%
CCOc1ccc(NC(=S)N2CCCN(Cc3cc(C)ccc3C)C2)cc1 | -25% | 36% | 2%
O=C(C[C@H]1C/C=C\C[C@H](Cc2ccc(F)cc2)C(=O)O[C@@H](c2ccccc2)CNC1=O)N[C@@H](CO)Cc1ccccc1 | 0% | 3% | -2%
Clc1nssc1=Nc1nncs1 | -25% | -1% | 3%
NC(=O)c1c(NC(=O)c2ccc(N3C(=O)CCC3=O)cc2)sc2c1CCCC2 | 17% | -5% | -1%
O=C1C=C(c2cccc(Cl)c2)C[C@@H](c2ccc(F)cc2)C1 | -17% | -2% | 0%
COc1ccccc1CNC(=O)COC(=O)c1ccc(N2CCCC2=O)cc1 | -9% | 5% | -11%
COc1ccc(Cl)cc1NS(=O)(=O)c1cccc(C(=O)NCC(C)(C)N2CCOCC2)c1 | -3% | -1% | 1%
CC(OC(=O)c1nc(Cl)ccc1Cl)C(=O)NC1CCCCC1C (stereo not given) | -12% | 0% | 4%
C=CC[C@H](CC(=O)NCCO)C(=O)N[C@@H](C)COC(=O)[C@@H](CC=C)CC(=O)OC(C)(C)C | -12% | -5% | 6%
Cc1cc(C)cc(NC(=O)c2cnn(-c3ccccc3)c2C2CCNCC2)c1 | -12% | -8% | 2%
Cc1cc(C)cc(OCC(=O)OCC(=O)NC2CCCC2)c1 | -5% | 4% | 4%
CCN1CCN(c2ccc(S(=O)(=O)N3CCOCC3)cc2NC(=O)CC(C)C)CC1 | -9% | -14% | 13%
CCOC(=O)[C@H]1[C@H]2COc3ccc(Cl)cc3[C@@H]2N2C(=O)CN(Cc3ccc(F)cc3)C(=O)[C@@]12C | -21% | 7% | -18%
O=C(COC(=O)c1cccc([N+](=O)[O-])c1)NNC(=O)c1cccs1 | 2% | 1% | 3%
O=C(CCCN1C(=O)/C(=C/c2ccccc2)SC1=S)Nc1cccc(O)c1 | 14% | -6% | -3%
CC(=O)c1c(C)[nH]c(C(=O)COC(=O)c2cc(C)oc2C)c1C | u | -1% | -8%
CCc1ccc(NC(=O)COC(=O)/C=C/c2c(C)nn(C3CCS(=O)(=O)C3)c2Cl)cc1 (stereo not given) | 0% | 14% | 0%
Cc1cccc(NC(=O)CN2CCN(C(=O)C(C)Oc3ccc(C#N)cc3)CC2)c1C (stereo not given) | -23% | 10% | 7%
COc1ccc(S(=O)(=O)Nc2cccc3c2O[C@H](CN(C)C)[C@@H](C)CN([C@H](C)CO)C3=O)cc1 | 40%[activator] | 0% | 9%
COc1cc(/C=C/C(=O)OCC(=O)N2CCC(C)CC2)ccc1OCC#N | -6% | 6% | -4%
COc1ccc(C2=CC(=O)C[C@H](c3ccc(F)cc3)C2)cc1F | -13% | 4% | 4%
O=C(NCc1ccc(Cl)cc1)C1CCN(c2cnccn2)CC1 | -19% | -13% | -1%
Cc1ccc(-c2nc(N)sc2C)cc1 | 33%[activator] | -13% | -3%
O=c1c2ccccc2oc2cc(-c3ccc4cc[nH]c4c3)ccc12 | 0% | 11% | 1%
O=C(CN1CCN(c2ccccc2O)CC1)Nc1ccccc1C(=O)NCCc1ccccc1 | -14% | -5% | 0%
CC(=O)Nc1ccccc1NC(=O)C/C(C)=N/NC(=O)C(=O)Nc1cccc(Cl)c1C | 3% | -10% | 2%
CCN1C(=O)[C@@H]2[C@@H](c3ccc(-c4ccc(OC)cc4)c(OC)c3)N3CCC[C@@]3(C(=O)OC)[C@@H]2C1=O | -6% | -5% | 5%
COc1ccc(C(=O)NCc2ccco2)cc1S(=O)(=O)NC1CC1 | 19% | 3% | 0%
CCN(CC)C(=O)[C@H]1C[C@H](CC(=O)NCc2cccc(C(F)(F)F)c2)C(=O)N2CCc3c([nH]c4ccc(Cl)cc34)[C@]12C | u | -1% | -13%
COc1cc(C)c(NC(=O)COc2cccc3c2OC(C)(C)C3)cc1OC | u | -2% | -3%
Cc1c(NS(=O)(=O)c2ccc(C(=O)NCc3ccc(F)cc3)cc2)c(=O)n(-c2ccccc2)n1C | -21% | 1% | 1%

Screening data: PubChem BioAssay, National Center for Advancing Translational Sciences (NCATS)
